# ID4 binder = binds human ID4 protein on microarray | P47928 | small molecule microarray, Flag-ID4 binding, fluorescence F/B | calls only | 1.2% of 31,000 active | AID 624137;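 active = spot signal over background at p below 0.07 in all four prints; compounds were printed on slides so no solution concentration is given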;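 note: a binder raises fluorescence above local background on the spot; about 2 pmol printed per array spot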
# Target sequence (P47928 whole entry, looked up): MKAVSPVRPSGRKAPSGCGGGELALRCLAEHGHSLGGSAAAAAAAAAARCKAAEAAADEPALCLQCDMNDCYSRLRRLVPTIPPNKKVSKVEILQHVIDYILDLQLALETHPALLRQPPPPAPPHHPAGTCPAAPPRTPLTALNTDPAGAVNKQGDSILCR
# Calls only; i = inactive; + = active, no number. A portion of the library; the hit share may differ from the screen's.
SMILES,ID4 binder
C[C@H](CO)N1C[C@H](C)[C@@H](CN(C)S(C)(=O)=O)Oc2ncc(/C=C/c3ccccc3)cc2C1=O,i
CCc1ccc(NC(=O)CSc2nnc(-c3ccc(Cl)cc3)n2C)cc1,i
CC(=O)N(C)C[C@@H]1Oc2ncc(-c3cncnc3)cc2C(=O)N([C@H](C)CO)C[C@H]1C,i
CC(=O)N(C)C[C@@H]1Oc2ncc(C#CCC3CCCC3)cc2C(=O)N([C@@H](C)CO)C[C@H]1C,i
CC(Sc1ncn(-c2ccccc2)n1)C(=O)Nc1ccc(Cl)cc1 (configuration not stated),i
O=C(CSc1n[nH]c(-c2ccc(Cl)cc2)n1)Nc1ccccc1Cl,i
Cc1cc(OCC(=O)Nc2ccc(CC#N)cc2)ccc1[N+](=O)[O-],i
COc1ccc(NC(=O)C(=O)NCc2cccnc2)cc1,i
COc1cccc2cc(C(=O)C3C(=O)C(=O)N(Cc4ccco4)C3c3ccc(F)cc3)oc12 (configuration not stated),i
CCCC#Cc1cnc2c(c1)C(=O)N([C@@H](C)CO)C[C@H](C)[C@@H](CN(C)Cc1ccccc1F)O2,i
C[C@H](CO)N1C[C@H](C)[C@@H](CN(C)CC2CCOCC2)Oc2ncc(C#CCC3CCCC3)cc2C1=O,i
CCCN(C)C[C@@H]1Oc2cc(C#Cc3cccc(F)c3)ccc2S(=O)(=O)N([C@@H](C)CO)C[C@H]1C,i
COCC#Cc1ccc2c(c1)O[C@H](CN(C)S(=O)(=O)c1cccc(OC)c1)[C@H](C)CN([C@H](C)CO)S2(=O)=O,i
C[C@H]1CN([C@@H](C)CO)C(=O)c2cc(C#Cc3ccccc3)cnc2O[C@@H]1CN(C)CC1CCOCC1,i
CCc1ccc(-n2nc3ccc(NC(=O)COc4ccccc4[N+](=O)[O-])cc3n2)cc1,i
COc1cc(-c2nnc(SCC(=O)c3ccc(Cl)cc3)n2C)cc(OC)c1OC,i
O=C(Cc1ccccc1[N+](=O)[O-])Nc1ccccc1CO,i
Cc1cccc(NC(=O)CN(c2ccccc2F)S(C)(=O)=O)c1,i
COc1ccc(NC(=O)NC(C)c2cn(C)nc2C)c(OC)c1 (configuration not stated),i
Cc1ccccc1NC(=O)CSc1nnc(-c2ccc(C(C)(C)C)cc2)n1C,i
Cc1ccc(Cl)c(NC(=O)NCCN2CCN(c3ccccc3[N+](=O)[O-])CC2)c1,i
O=C(COc1ccc(Cl)cc1)Nc1cc(C(F)(F)F)ccc1N1CCOCC1,i
O=C(CC1NC2CCCCC2NC1=O)Nc1ccc([N+](=O)[O-])cc1 (configuration not stated),i
CC(=O)Nc1ccc(C(=O)Nc2cccc(NC(=O)c3ccco3)c2)cc1,i
COC(=O)C(CC#Cc1ccc2c(c1)[C@]1(C(=O)N2)[C@H](c2ccccc2OCCO)N2[C@H](c3ccccc3)[C@H](c3ccccc3)OC(=O)[C@H]2[C@@H]1C(=O)N1CCCCCCC1)C(=O)OC,i
COc1ccccc1-c1ccc2c(c1)O[C@@H](CN(C)C(=O)c1cccnc1)[C@@H](C)CN([C@H](C)CO)S2(=O)=O,i
COc1ccc(CCNC(=O)Nc2cccc([N+](=O)[O-])c2)cc1OC,i
CCn1c(SCC(=O)Nc2ccc(I)cc2)nnc1-c1ccccc1F,i
CS(=O)(=O)N(CC(=O)Nc1ccc(C(F)(F)F)cc1)c1cccc([N+](=O)[O-])c1,i
COC(=O)C1C(=O)c2c([nH]c(C(=O)OC(C)C)c2C)CC1C (configuration not stated),i
C[C@H]1CN([C@@H](C)CO)C(=O)c2cc(-c3ccc(C#N)cc3)cnc2O[C@@H]1CN(C)Cc1ccncc1,+
O=C(CSc1ncnc2scc(-c3ccccc3)c12)c1ccccc1,i
Cc1ccc(-n2c(SCC(=O)NCC3CCCO3)nc3sc(C)c(C)c3c2=O)cc1C (configuration not stated),i
COc1ccc(S(=O)(=O)N(C)CC(=O)Nc2cc(C)ccc2C)cc1C,i
C[C@H]1CN([C@@H](C)CO)S(=O)(=O)c2ccc(-c3ccc(F)cc3)cc2O[C@H]1CN(C)S(C)(=O)=O,i
COc1cccc(-c2nn(-c3ccccc3)cc2C(=O)NCC(=O)O)c1,i
COc1ccc2c(c1)c(CC(=O)O)c(C)n2C(=O)c1ccc(Cl)cc1,i
N#Cc1c(NC(=O)CSc2n[nH]c(-c3ccc(Cl)cc3Cl)n2)sc2c1CCCC2,i
C[C@H]1CN([C@@H](C)CO)S(=O)(=O)c2ccc(C#Cc3cccc(F)c3)cc2O[C@H]1CN(C)C(=O)NC1CCCCC1,i
CCOC(=O)c1c(-c2ccccc2)csc1NC(=O)Cn1c(=O)oc2ccccc21,i
Cc1ccc(NC(=O)COc2ccc(Cl)cc2Cl)c([N+](=O)[O-])c1,i
O=c1c2ccccc2nc(CSc2nc(C3CC3)nc3ccccc23)n1-c1ccccc1,i
C/C=C/c1cnc2c(c1)C(=O)N([C@@H](C)CO)C[C@H](C)[C@H](CN(C)C(=O)C1CCC1)O2,i
C[C@@H]1CN([C@@H](C)CO)C(=O)c2cc(N(C)C)ccc2O[C@H]1CN(C)Cc1ccc(Cl)c(Cl)c1,i
O=C1O[C@@H](c2ccccc2)[C@@H](c2ccccc2)N2[C@@H](c3ccc(OCCO)cc3)[C@]3(C(=O)Nc4ccc(C#CC5=CCCCC5)cc43)[C@@H](C(=O)N3CCN(c4ncccn4)CC3)[C@H]12,i
CCc1ccccc1N(CC(=O)N1CCC(Cc2ccccc2)CC1)S(C)(=O)=O,i
O=C(O)Cc1cc(I)c(Oc2cc(I)c(O)c(I)c2)c(I)c1,i
Cc1nc2nc[nH]n2c(=O)c1NS(=O)(=O)c1ccc2c(c1)CCCC2,i
O=C(CSc1nnc(-c2ccc(Cl)cc2)o1)Nc1ccc(I)cc1,i
C[C@H]1CN([C@@H](C)CO)C(=O)c2cc(-c3ccccc3)cnc2O[C@H]1CN(C)Cc1ccccn1,i
CN1CCC[C@@H]1CCO[C@](C)(c1ccccc1)c1ccc(Cl)cc1,i
COc1ccccc1C#Cc1cnc2c(c1)C(=O)N([C@H](C)CO)C[C@H](C)[C@H](CN(C)C)O2,i
COc1cccc(CNC(=O)C[C@@H]2C=C[C@@H](NC(C)=O)[C@@H](CO)O2)c1,i
O=C(O)c1cc(NS(=O)(=O)c2cccc3cccnc23)ccc1O,i
CCCN(C)C[C@H]1Oc2ncc(C#CC3(O)CCCC3)cc2C(=O)N([C@@H](C)CO)C[C@H]1C,i
S=c1nc[nH]c2c1sc1nc(N3CCOCC3)c3c(c12)CCCC3,i
CC(=O)Nc1cccc(-c2nnc(SCC(=O)Nc3ccccc3F)n2C)c1,i
Cc1ccc(CN(C)C[C@@H]2OCc3cnnn3CCCC(=O)N([C@@H](C)CO)C[C@H]2C)cc1,i
COc1ccc([N+](=O)[O-])cc1N(CC(=O)N(C)C)S(C)(=O)=O,i
Cc1ccc(NC(=O)COc2c(C)cc(Cl)cc2Cl)c([N+](=O)[O-])c1,i

# An excerpt of the results above, for reference:
SMILES,ID4 binder
Cc1ccc(NC(=O)COc2ccc(Cl)cc2Cl)c([N+](=O)[O-])c1,i
O=c1c2ccccc2nc(CSc2nc(C3CC3)nc3ccccc23)n1-c1ccccc1,i
C/C=C/c1cnc2c(c1)C(=O)N([C@@H](C)CO)C[C@H](C)[C@H](CN(C)C(=O)C1CCC1)O2,i
C[C@@H]1CN([C@@H](C)CO)C(=O)c2cc(N(C)C)ccc2O[C@H]1CN(C)Cc1ccc(Cl)c(Cl)c1,i
O=C1O[C@@H](c2ccccc2)[C@@H](c2ccccc2)N2[C@@H](c3ccc(OCCO)cc3)[C@]3(C(=O)Nc4ccc(C#CC5=CCCCC5)cc43)[C@@H](C(=O)N3CCN(c4ncccn4)CC3)[C@H]12,i
CCc1ccccc1N(CC(=O)N1CCC(Cc2ccccc2)CC1)S(C)(=O)=O,i
O=C(O)Cc1cc(I)c(Oc2cc(I)c(O)c(I)c2)c(I)c1,i
Cc1nc2nc[nH]n2c(=O)c1NS(=O)(=O)c1ccc2c(c1)CCCC2,i
O=C(CSc1nnc(-c2ccc(Cl)cc2)o1)Nc1ccc(I)cc1,i
C[C@H]1CN([C@@H](C)CO)C(=O)c2cc(-c3ccccc3)cnc2O[C@H]1CN(C)Cc1ccccn1,i
CN1CCC[C@@H]1CCO[C@](C)(c1ccccc1)c1ccc(Cl)cc1,i
COc1ccccc1C#Cc1cnc2c(c1)C(=O)N([C@H](C)CO)C[C@H](C)[C@H](CN(C)C)O2,i
COc1cccc(CNC(=O)C[C@@H]2C=C[C@@H](NC(C)=O)[C@@H](CO)O2)c1,i

# Additional entries.
SMILES,ID4 binder
C[C@H](NC(=O)C[C@H]1C[C@H]2c3cc(NC(=O)Cc4ccncc4)ccc3O[C@H]2[C@@H](CO)O1)c1ccccc1,i
COc1ccc(C(=O)N(Cc2nc(-c3ccccc3)no2)C(C)C)cc1OC,i
C[C@H]1CN([C@@H](C)CO)S(=O)(=O)c2ccc(C#CC3CC3)cc2O[C@H]1CN(C)CC1CCOCC1,i
Fc1ccccc1CSc1nnc(Cn2cnc3ccccc32)n1-c1ccccc1,i
O=C(CSc1nc(O)cc(=O)n1-c1ccccc1)Nc1ccc2ccccc2c1,i
COc1ccc(Cl)cc1N(CC(=O)Nc1ccccc1SC)S(C)(=O)=O,i
CO[C@H](CN(C)C(=O)Nc1ccc(C(F)(F)F)cc1)[C@H](C)CN(Cc1ccccc1Cl)[C@@H](C)CO,i
CC(C)c1ccc(NC(=S)N2CCCC(c3ccc(F)cc3)=N2)cc1,i
COCCNC(=O)c1ccccc1NC(=O)Nc1ccc(Cl)cc1,i
N=C(N)SCc1nc(N)nc(N2CCCCC2)n1,i
C[C@@H]1CN([C@H](C)CO)C(=O)c2cc(C#CCN(C)C)cnc2O[C@@H]1CN(C)Cc1ccccc1F,i
C/C=C/c1ccc2c(c1)O[C@@H](CN(C)Cc1cccc(F)c1)[C@@H](C)CN([C@@H](C)CO)S2(=O)=O,i
CC(Sc1nc(=O)cc(N)n1-c1ccccc1)C(=O)Nc1cccc(Cl)c1 (configuration not stated),i
COC(=O)c1cccc(NC(=O)CSc2n[nH]c(-c3ccc(Cl)cc3)n2)c1,i
COc1cccc(-c2ccc(C#N)c(SCC(=O)Nc3ccccc3Br)n2)c1,i
O=C(C[C@@H]1CC[C@@H](NC(=O)CC2CC2)[C@@H](CO)O1)NCc1ccc(Cl)cc1,i
CO[C@H]1O[C@H](CO)[C@@H](OC(=O)Nc2ccccc2)[C@H](OC(=O)Nc2ccccc2)[C@H]1OC(=O)Nc1ccccc1,i
CN(C)C(=O)C[C@@H]1C[C@@H]2c3cc(NC(=O)CC4CC4)ccc3O[C@@H]2[C@@H](CO)O1,i
O=C(N[C@@H]1CC[C@H](CC(=O)N2CCc3ccccc3C2)O[C@H]1CO)C1CCC1,i
COC(=O)C[C@H]1CC[C@H](N)[C@@H](CO)O1,i
C[C@H](CO)N1C[C@H](C)[C@@H](CN(C)C(=O)c2ccncc2)Oc2ncc(C#C[C@@H](C)O)cc2C1=O,i
C[C@@H](NC(=O)C[C@H]1C[C@@H]2c3cc(N(C)C)ccc3O[C@@H]2[C@@H](CO)O1)c1ccccc1,i
CC(O)c1nc2ccccc2n1CCOc1ccc(Br)cc1 (configuration not stated),i
Cc1cc(C)c(NC(=O)CN(c2ccc(I)cc2)S(C)(=O)=O)c(C)c1,i
Cc1ccc(NC(=O)CSc2nnc(-c3cccs3)n2C)cc1[N+](=O)[O-],i
COc1ccc(S(=O)(=O)N[C@@H]2C=C[C@@H](CC(=O)N3CCc4ccccc4C3)O[C@H]2CO)cc1,i
COc1c(Cl)cc(C(=O)Nc2sc3c(c2C(=O)NCc2ccco2)CCCC3)cc1Cl,i
Cc1cc(C)c(-n2c(O)c(C=Nc3cccc(O)c3)c(=O)[nH]c2=O)c(C)c1,i
COC(=O)N(C)C[C@H]1OCc2ccccc2-c2c(n(C)c3ccccc23)C(=O)N([C@@H](C)CO)C[C@@H]1C,i
C[C@H](CO)N1C[C@H](C)[C@H](CN(C)Cc2cncnc2)Oc2cc(C#CC3CC3)ccc2S1(=O)=O,i
CCn1c(SCC(=O)Nc2cc(C)ccc2OC)nnc1-c1ccccc1F,i
O=C1c2cccc3cccc(c23)N1Cc1ccc(F)cc1Cl,i
CCC(=O)N[C@H]1C=C[C@@H](CC(=O)NCc2cc(F)cc(F)c2)O[C@H]1CO,i
COc1ccc([N+](=O)[O-])cc1NC(=O)CS(=O)(=O)c1ccc(C)cc1,i
CCC(=O)N(C)C[C@@H]1Oc2ncc(/C=C/c3ccccc3)cc2C(=O)N([C@H](C)CO)C[C@H]1C,i
Cc1nn(CC(O)COc2ccc3c(c2)CCC3)c(C)c1Br (configuration not stated),i
C/C=C/c1ccc2c(c1)O[C@H](CN(C)C(=O)c1ccc3c(c1)OCO3)[C@H](C)CN([C@H](C)CO)S2(=O)=O,i
Cc1cc(Cl)ccc1OC(C)C(=O)Nc1cccc(-c2nnc(-c3ccccc3)o2)c1 (configuration not stated),i
O=C(Nc1ccccc1Cl)c1ccccc1S(=O)(=O)c1ccccc1[N+](=O)[O-],i
CCc1ccccc1NC(=O)CSc1c(C)n[nH]c1C,i
CCn1c(SCC(=O)Nc2cc3oc4ccccc4c3cc2OC)nnc1-c1cccnc1,i
CC(=O)Nc1ccc(NC(=O)CSc2nnc(-c3ccncc3)n2-c2ccc(Cl)cc2)cc1,i
N#C[C@H]1[C@@H](c2ccc(C3=CCCCC3)cc2)[C@@H](CO)N1S(=O)(=O)c1ccccc1,i
CC(C)CC#Cc1ccc2c(c1)O[C@H](CN(C)C(=O)c1cccc(F)c1)[C@@H](C)CN([C@@H](C)CO)S2(=O)=O,i
Cc1cccc(OCC(=O)Nc2cccc(C(=O)O)c2C)c1,i
COCCNS(=O)(=O)c1ccc(F)c(OC)c1,i
C[C@H](CO)N1C[C@H](C)[C@H](CN(C)CC2CC2)Oc2cc(-c3cncnc3)ccc2S1(=O)=O,i
CCOc1ccc(NC(=O)CSc2nc(N)c3c4c(sc3n2)COC(C)(C)C4)cc1,i
COc1cccc(NC(=O)N(C)C[C@H]2Oc3cc(/C=C/c4ccccc4)ccc3S(=O)(=O)N([C@@H](C)CO)C[C@@H]2C)c1,i
